Assay outcomes: PubChem BioAssay, several laboratories
Mtb H37Rv: M. tuberculosis H37Rv growth inhibitors, H37Rv strain (AID 1626) | one-dose inhibition, % at 10 µM; IC50 in µM for titrated hits | 0.95% of 220,000 active | M. tuberculosis H37Rv growth inhibition; higher % means a stronger effect;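 active = confirmed in a dose series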;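 also: bacteria incubated seven days before Alamar blue readout; 0% = bacteria only wells and 100% = bacteria with antibiotic wells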
Mtb betalactam: beta-lactam sensitization of Mtb H37Rv; M. tuberculosis H37Rv growth with meropenem, percent inhibition; hits of this screen are not shown here; inhibition, % at 25 µM; 0.27% of 330,000 active; AID 434955;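 active = about 74% or more and at least 40 points above the plate without the antibiotic, then above 30% in a dose series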;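 also: growth measured after seven days incubation then overnight dye step; 0% = bacteria only wells and 100% = bacteria with antibiotic; twin plates without the antibiotic show which effects depend on it; some results filed as inactive read as strong as hits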
YopH PTP inh: YopH (Yersinia) phosphatase inhibition; inhibition, %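 (about 10 µM by stock and volumes)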; fluorescence Ex485/Em525; AID 898; 0.16% of 140,000 active;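 active = inhibition of 50% or more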;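 also: controls were vehicle for no effect and minimum signal wells for full effect; inactives centre near -20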
RecA intein inh: inhibitors of M. tuberculosis RecA intein splicing. P9WHJ3. cell-free RecA intein splicing, fluorescence. inhibition, %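 (about 9 µM by stock and volumes)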. 0.75% of 290,000 active. AID 2221; in the data active = inhibition above about 30%;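 also: 0% = vehicle wells and 100% = reference inhibitor control wells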
Target sequence (P9WHJ3 whole entry, looked up): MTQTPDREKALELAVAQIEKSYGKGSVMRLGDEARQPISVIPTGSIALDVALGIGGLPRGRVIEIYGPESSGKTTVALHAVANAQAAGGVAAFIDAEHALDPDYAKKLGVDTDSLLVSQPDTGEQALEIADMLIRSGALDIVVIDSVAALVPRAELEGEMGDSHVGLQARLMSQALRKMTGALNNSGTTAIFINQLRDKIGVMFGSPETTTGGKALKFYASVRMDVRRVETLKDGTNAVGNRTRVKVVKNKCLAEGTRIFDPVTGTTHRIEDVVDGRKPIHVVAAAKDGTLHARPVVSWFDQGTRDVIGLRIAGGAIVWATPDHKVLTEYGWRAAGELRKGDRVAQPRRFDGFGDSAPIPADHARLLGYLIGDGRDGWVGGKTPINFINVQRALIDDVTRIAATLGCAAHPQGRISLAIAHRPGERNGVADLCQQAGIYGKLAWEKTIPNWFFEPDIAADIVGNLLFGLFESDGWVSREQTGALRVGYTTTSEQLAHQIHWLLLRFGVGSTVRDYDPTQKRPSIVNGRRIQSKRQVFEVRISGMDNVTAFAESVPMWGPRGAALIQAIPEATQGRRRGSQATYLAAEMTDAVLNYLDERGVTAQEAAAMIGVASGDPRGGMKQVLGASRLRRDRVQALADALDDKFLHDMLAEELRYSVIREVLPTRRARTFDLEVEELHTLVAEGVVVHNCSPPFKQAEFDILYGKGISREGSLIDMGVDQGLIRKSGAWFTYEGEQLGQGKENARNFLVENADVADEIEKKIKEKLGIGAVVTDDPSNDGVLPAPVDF
Arbovirus inh: arbovirus infection inhibition; arbovirus infection cell-based antiviral screen; inhibition, % at 10 µM; 0.37% of 200,000 active; AID 1251;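 active = inhibition from about 30%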;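 also: bluetongue infection of BSR cells; cell survival read as ATP light after 72 h; 0% = infected wells without compound and 100% = uninfected wells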
Arbovirus inh repeat: recorded beside Arbovirus inh, whose call it bears; inhibition, %; measured here: 10K subset replicate screen; many hits read low in the repeat;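 first of two repeat runs on a subset; 0% = infected and 100% = uninfected wells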
An asterisk follows results filed as active; · = not tested or not shown.

SMILES | Mtb H37Rv | Mtb betalactam | YopH PTP inh | RecA intein inh | Arbovirus inh | others
CC(OC(=O)CCCN=C1NS(=O)(=O)c2ccccc21)C(=O)Nc1ccccc1F (centres undefined) | · | -5 | · | -2.0 | ·
Cc1ccc(O)c(NC(=O)c2noc3c2CCc2ccccc2-3)c1 | 1% | -1 | · | 0.1 | 3
O=C1CCCC(O)=C1N=Nc1c(Cl)cc(C(F)(F)F)cc1Cl | 6% | 0 | · | -1.2 | ·
Cc1ccc(NC(=O)c2cc(N3C(=O)C=CC3=O)ccc2N2CCOCC2)cc1 | -13% | · | · | 4.2 | 4
CCCSC1=C(C#N)C(c2cc(OC)ccc2OC)CC(=O)N1 (centres undefined) | 2% | -1 | -13 | -2.8 | 0 | Arbovirus inh repeat=0
COCc1cc(C)nc(SCC(=O)Nc2ccc(C)c(C)c2)c1C#N | 3% | 96 | -13 | -4.5 | 11
CCN1CCN(C(=O)Cc2ccc(C)cc2)CC1 | · | -10 | · | -3.2 | ·
CC[C@H](C)/C=C(C)/C=C/C1=CC2=CC(=O)[C@]3(C)OC(=O)[C@@H](C(C)=O)[C@@H]3C2=CO1 | 4% | -2 | · | -128 | 0
Cc1ccc(SCC(=O)NC(=O)NCc2ccco2)cc1C | 6% | · | -24 | · | 7
O=C1CN(O)C(c2ccccc2)=c2cc(Br)ccc2=N1 | · | -3 | · | 0.8 | ·
COc1cc(C=Nc2cccc(C)c2)c(O)c([N+](=O)[O-])c1 | 13% | 1 | -2 | 2.1 | -1
CCOC(=O)c1c(-c2ccccc2)oc2ccc(OCC(=O)NN)cc12 | · | 4 | · | 2.4 | ·
CNC(=O)CCC(=O)Nc1ccc(C)cc1 | -1% | -5 | · | -1.2 | 4
CC(C)OCCCNC(=O)c1ccc2c(=O)n(Cc3ccc4c(c3)OCO4)c(=S)[nH]c2c1 | -1% | -2 | · | -0.5 | 0
O=C(CSc1c(F)c(F)cc(F)c1F)Nc1ccc(C2SCCS2)cc1 | 1% | 3 | · | 0.8 | ·
COC(=O)CCCC(=O)N1CCC(CCC(=O)NCc2ccc(F)cc2)CC1 | · | -4 | · | -2.0 | ·
CCn1c(C(C)NC(=O)c2cccc(C)c2)nc2ccccc21 (centres undefined) | 9% | 2 | -39 | 0.9 | -4 | Arbovirus inh repeat=-7
O=C(C1CCN(C2CC(=O)N(c3ccc(Cl)cc3)C2=O)CC1)N1CCOCC1 (centres undefined) | -6% | 20 | -30 | -1.4 | 4
CCOc1ccc(N=C2NC(=O)C(CC(=O)O)S2)cc1 (centres undefined) | -10% | -4 | -30 | 0.2 | 11 | Arbovirus inh repeat=-1
CN1CCN(c2ccc(C(=O)c3ccccc3)cc2[N+](=O)[O-])CC1 | 2% | -1 | -16 | 1.3 | -19
C/C=C/c1ccc(OCCCNC2CCCC2)c(OC)c1 | -4% | -5 | -4 | -1.1 | -35
Fc1ccc(-c2nc3cnccn3c2NC2CCCC2)cc1 | -5% | 2 | · | -124 | 5
CCN(CC)S(=O)(=O)c1cccc(NC(=O)CNC2CCCCCC2)c1 | · | -6 | · | 0.2 | ·
OCc1ccnc2c(O)cccc12 | -3% | 16 | -51 | -31 | -20
CN(Cc1ccco1)C(=O)c1ccc(N2CCCC2=O)cc1 | -6% | -3 | -3 | 2.5 | -1
The results go on:
SMILES | Mtb H37Rv | Mtb betalactam | YopH PTP inh | RecA intein inh | Arbovirus inh | others
O=C(/C=C/c1cccc(Cl)c1)NCCN1CCOCC1 | 4% | 3 | -22 | -0.7 | -1
O=C(OCc1nc2ccccc2[nH]1)C1CCCCC1 | 5% | 5 | -33 | 6.7 | 3
CC(C)C(=O)c1ccc(O)c(O)c1 | -4% | 7 | · | -6.7 | ·
COc1ccc(CN2CCN(C(=O)c3cccs3)CC2)c(OC)c1OC | -2% | 5 | -7 | -0.9 | 2
O=C(NCc1ccc(C(=O)N2CCC3(CC2)OCCO3)cc1)c1cccc(Br)c1 | -6% | -6 | -38 | -2.9 | 2
C[C@@]12CCC=C[C@H]1[C@H](c1ccc3ccccc3c1)N(Cc1ccccc1)C2=O | 8% | 0 | · | 24 | ·
CC(C)(C)NC(=O)Cn1ccc(=N)c2ccccc21 | -3% | -1 | -42 | 0.5 | 3
O=C(COC(=O)c1cc(Cl)ccc1O)NCCC1=CCCCC1 | · | 8 | · | 0.5 | ·
CC1(C)Cc2c(sc(NC(=O)C3CC(Cl)=CCC3C(=O)O)c2C#N)CO1 (centres undefined) | 1% | -5 | · | 5.7 | 11
CNc1cccc2c1C(=O)c1ccccc1C2=O | 4% | 3 | -22 | 22 | -17
Cn1c(C(=O)N2CCOCC2)cc2c(=O)n3ccccc3nc21 | · | -2 | · | -416 | ·
O=C(Cc1cccc2ccccc12)Nc1ccc2oc(-c3ccccc3)nc2c1 | 1% | 3 | -42 | -1.6 | -2
CCOP(=O)(OCC)C(NC(=O)CC(C)C)C(Cl)(Cl)Cl (centres undefined) | 0% | 1 | · | 0.1 | 5
O=C1CN(O)C(c2ccccc2Cl)=c2cc(Br)ccc2=N1 | · | -1 | · | 0.6 | ·
Cc1cc(C)n2nc(C(=O)N/N=C/c3ccccc3C)nc2n1 | 1% | -9 | · | -1.3 | ·
CC(OC(=O)CNC(=O)c1ccco1)C(=O)Nc1ccc(Cl)cn1 (centres undefined) | · | 2 | · | 0.9 | ·
CC(=O)C1=C(O)C(=O)N(c2ccccn2)C1c1ccc(Cl)cc1 (centres undefined) | · | 6 | · | -2.1 | ·
CCCC(=O)NC(c1ccc(C(C)C)cc1)c1ccc2cccnc2c1O (centres undefined) | · | 5 | · | 10 | ·
C=CCn1c(SCC(=O)NCC2CCCO2)nc2scc(-c3ccccc3)c2c1=O (centres undefined) | · | -11 | · | -1.1 | ·
NC(N)=NS(=O)(=O)c1ccc(NC(=S)NC(=O)c2ccncc2)cc1 | · | -4 | · | 0.7 | ·
COc1ccc(CCC(=O)Nc2ccc(C(=O)c3ccncc3)cc2)cc1 | · | 5 | · | 6.6 | ·
Cc1cc(Cl)ccc1OCC(=O)N1C(C)CCCC1C (centres undefined) | 2% | 10 | -11 | -0.8 | -3
O=C(Nc1ccccc1)C1Cc2ccccc2CN1C(=O)c1ccco1 (centres undefined) | 2% | 5 | 7 | -4.0 | -2
CCOc1ccc(OCc2ccc(C(=O)N(CC)CC)cc2)cc1 | 12% | 11 | · | 2.6 | 4
CC(C)C[C@@]12C(=O)N(c3cccc(Cl)c3)C(=O)N1[C@H](c1ccc(F)cc1)[C@@H]1C(=O)N(C3CCCCC3)C(=O)[C@@H]12 | · | -1 | · | 3.7 | ·

Compounds listed so far that contain two or more sulfur atoms, in the order listed:
SMILES | Mtb H37Rv | Mtb betalactam | YopH PTP inh | RecA intein inh | Arbovirus inh | others
O=C(CSc1c(F)c(F)cc(F)c1F)Nc1ccc(C2SCCS2)cc1 | 1% | 3 | · | 0.8 | ·
C=CCn1c(SCC(=O)NCC2CCCO2)nc2scc(-c3ccccc3)c2c1=O (centres undefined) | · | -11 | · | -1.1 | ·
NC(N)=NS(=O)(=O)c1ccc(NC(=S)NC(=O)c2ccncc2)cc1 | · | -4 | · | 0.7 | ·

Molecules from the list above containing an NH in an aromatic ring:
SMILES | Mtb H37Rv | Mtb betalactam | YopH PTP inh | RecA intein inh | Arbovirus inh | others
CC(C)OCCCNC(=O)c1ccc2c(=O)n(Cc3ccc4c(c3)OCO4)c(=S)[nH]c2c1 | -1% | -2 | · | -0.5 | 0
O=C(OCc1nc2ccccc2[nH]1)C1CCCCC1 | 5% | 5 | -33 | 6.7 | 3

Next part.
SMILES | Mtb H37Rv | Mtb betalactam | YopH PTP inh | RecA intein inh | Arbovirus inh | others
N#CC1=C(SCC(=O)NC23CC4CC(CC(C4)C2)C3)NC(=O)C(C#N)C12CCCCC2 (centres undefined) | -6% | -8 | -18 | 7.5 | 4
CC(C)Oc1ccc(S(=O)(=O)N2CCOCC2)cc1NC(=O)Cc1c(F)cccc1Cl | · | -2 | · | -0.8 | ·
O=C(Cc1ccccc1F)NCC(=O)Nc1ccccc1Br | · | 0 | · | 0.2 | ·
Cn1cc(-c2nc3ccccc3[nH]2)c2ccccc21 | 8% | -1 | -11 | 2.2 | 6
CCc1nc(N)c(C#N)c(-c2ccc(F)cc2)c1C | -6% | 4 | 5 | 5.0 | 7
CC(C)Cn1c(N)c(C(=O)COC(=O)C2CC(=O)N(Cc3ccccc3Cl)C2)c(=O)n(C)c1=O (centres undefined) | 4% | -3 | · | · | 3
COCCN1C(=O)N[C@@H](c2cccc(F)c2)C(C(C)=O)=C1C | -2% | -4 | · | -0.2 | ·
Cc1cc2cc(CNC(=O)c3ccc4c(c3)OCO4)ccc2n1C | 53% | 41 | -33 | -4.8 | -9
O=C(c1ccccc1)c1cnc(-c2ccccc2)s1 | 9% | -1 | · | 1.2 | 5
COc1ccccc1NC(=O)Nc1ccc(Br)cn1 | 6% | -8 | -30 | -0.8 | 1 | Arbovirus inh repeat=-1
CCOc1ccccc1Nc1nc(-c2sc(NC(=O)c3ccc([N+](=O)[O-])cc3)nc2C)cs1 | 14% | 9 | 11 | 2.6 | -27
CCNc1nc(Oc2ccc(=O)n(C)n2)nc(N2CCOCC2)n1 | -5% | -2 | -36 | -6.2 | -4
CCC(CC)C(=O)Nc1nnc(SCC(=O)N2CCN(c3ccccc3OC)CC2)s1 | -7% | 1 | -55 | · | 19
Cn1nc(C(F)(F)F)c(C(=O)Nc2ccc(C(F)(F)F)cc2)c1Cl | -13% | 3 | -49 | 0.8 | 9
O=C(CNC(=O)c1ccco1)Nc1ccc(F)c(Cl)c1 | · | 4 | · | -0.3 | ·
O=C(CCCSc1nc(-c2ccco2)cc(C(F)(F)F)n1)NCc1cccs1 | 0% | 2 | 16 | · | -11
O=C(NCCCCNC(=O)c1ccccc1Br)c1ccccc1Br | · | -6 | · | -0.3 | ·
CCC(=O)Nc1ccc(-c2nc(-c3ccccc3)n(CC(=O)N3CCCCC3)n2)cc1 | 2% | 2 | -28 | 2.8 | 0
COc1cc(C(=O)Nc2cccc(-n3cnnn3)c2)cc(OC)c1OC | · | -6 | · | 0.7 | ·
Cc1cc(=O)[nH]c(-c2ccccc2OC(F)(F)F)n1 | 0% | -5 | · | -0.7 | ·
O=C(NCc1ccncc1)C(=O)N/N=C/c1cccnc1 | 11% | -11 | · | 3.4 | -4
Cc1nn(Cc2ccccc2)c(C)c1C(=O)NCC(c1cccs1)N1CCOCC1 (centres undefined) | · | 6 | · | -2.2 | ·
Cc1cc(-c2nnco2)c(C)n1-c1ccccc1 | 52% | 5 | -27 | 2.9 | -7
CC(=NCCCn1ccnc1)c1c(O)n(-c2ccccc2)c(=O)[nH]c1=O | -4% | -8 | · | -6.3 | ·
O=C(CN(C(=O)CCC(=O)Nc1nccs1)c1ccc(F)cc1)NCCc1ccccc1 | · | -3 | · | -0.8 | ·

Sorted by number of heavy atoms (falling): some entries from above.
SMILES | Mtb H37Rv | Mtb betalactam | YopH PTP inh | RecA intein inh | Arbovirus inh | others
Cc1nn(Cc2ccccc2)c(C)c1C(=O)NCC(c1cccs1)N1CCOCC1 (centres undefined) | · | 6 | · | -2.2 | ·
O=C(c1ccccc1)c1cnc(-c2ccccc2)s1 | 9% | -1 | · | 1.2 | 5
Cc1cc(-c2nnco2)c(C)n1-c1ccccc1 | 52% | 5 | -27 | 2.9 | -7

The list continues.
SMILES | Mtb H37Rv | Mtb betalactam | YopH PTP inh | RecA intein inh | Arbovirus inh | others
CCOCCCNC(=O)C(NC(=O)CNC(=O)c1ccccc1)c1ccc(OC)cc1 (centres undefined) | · | 4 | · | -1.9 | ·
COc1ccc(/C(C)=N/NC(=O)c2ccncc2)cc1[N+](=O)[O-] | · | 99 | · | -1.5 | ·
O=C(CN(CC1CCCO1)S(=O)(=O)c1ccc(S(=O)(=O)NCC2CCCO2)cc1)Nc1ccccc1 (centres undefined) | 2% | -11 | -17 | 0.2 | -10
O=C(CSc1nnc(CCCO)n1-c1ccccc1)Nc1nccs1 | -9% | -1 | -37 | 1.8 | 7
O=C1c2ccccc2NC(c2ccccn2)N1c1ccccc1F (centres undefined) | -11% | -26 | 28 | -7.0 | 0
Nc1cc(S(=O)(=O)Nc2ccccc2Cl)ccc1N1CCCC1 | 2% | -10 | · | -1.8 | ·
CCCCn1c(N)c(N(CCOC)C(=O)CSCc2ccc(Cl)c(Cl)c2)c(=O)[nH]c1=O | · | -8 | · | 4.9 | ·
CSc1ccc(C#N)cc1NC(=O)c1cccc(Cl)c1 | -2% | 1 | -41 | -1.2 | -7

2 successive compounds already listed, for reference:
SMILES | Mtb H37Rv | Mtb betalactam | YopH PTP inh | RecA intein inh | Arbovirus inh | others
CCCCn1c(N)c(N(CCOC)C(=O)CSCc2ccc(Cl)c(Cl)c2)c(=O)[nH]c1=O | · | -8 | · | 4.9 | ·
CSc1ccc(C#N)cc1NC(=O)c1cccc(Cl)c1 | -2% | 1 | -41 | -1.2 | -7

This is a subset (hit frequency here may not be typical).
